# Screens: PubChem, National Center for Advancing Translational Sciences (NCATS)
# GLA inh pH 4.5: alpha-galactosidase A (human) inhibition, pH 4.5 | P06280 | purified enzyme, 4-MU-alpha-Gal fluorescence, pH 4.5 | activity change, negative = inhibition, % at 105 µM | 230,000 tested, under 10 active | AID 1467; inconclusive = small, poorly fitted or top-dose-only inhibition, or a rising curve; inactive = flat fitted curve, though single readings scatter; no compound was filed as active;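 note: 0% = full activity with enzyme and -100% = basal without enzyme; dose as in the result columns while the protocol names 77 µM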
# Rango release inh: inhibition of RanGTP-driven Rango-importin beta dissociation; O95149+P62826; Biochemical FRET Rango-importin beta, RanGTP-induced dissociation; Potency, µM (highest dose often 46.1 µM), without a hit: at the highest dose activity change, negative = inhibition; actives 0.071% (n = 340,000); active means falling FRET ratio curve, often poorly fitted, with flat reads before Ran was added; inconclusive means other falling curves, or compound fluorescence or quenching; inactive means flat or rising ratio curve;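 note: potency is the fitted concentration of half-maximal effect; % of control where 0% means no effect; nearly all actives have a fitted effect of over 45% in size; -100% = wells without RanGTP and RCC1; the record marks most hits as doubtful in a second field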
#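 Quantitative HTS using a FRET biosensor: 0.1 uM Rango, 0.25 uM importin beta, 0.6 uM Ran, 2 mM GTP, 0.2 uM RCC1 final, PBS with DTT, Tween-20 and BSA. Post-read taken 45 min after Ran addition.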
# Rango complex inh: prevents formation of the Rango-importin beta complex | actives 0.031% (n = 340,000) | AID 540263 | Q14974 | Rango CFP/YFP FRET sensor + importin beta, 45 min | Potency, µM (highest dose often 92.2 µM), for the others: at the highest dose inhibition of complex formation; active = rising FRET ratio curve, often small or poorly fitted; inconclusive = mostly compound fluorescence or quenching in the first reads; inactive = flat curves in all reads;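 note: potency is the fitted concentration of half-maximal effect; 0% = DMSO wells and 100% = buffer wells lacking importin beta; nearly all actives have a fitted effect of over 15% in size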
# Target sequence (Q14974 whole entry, looked up): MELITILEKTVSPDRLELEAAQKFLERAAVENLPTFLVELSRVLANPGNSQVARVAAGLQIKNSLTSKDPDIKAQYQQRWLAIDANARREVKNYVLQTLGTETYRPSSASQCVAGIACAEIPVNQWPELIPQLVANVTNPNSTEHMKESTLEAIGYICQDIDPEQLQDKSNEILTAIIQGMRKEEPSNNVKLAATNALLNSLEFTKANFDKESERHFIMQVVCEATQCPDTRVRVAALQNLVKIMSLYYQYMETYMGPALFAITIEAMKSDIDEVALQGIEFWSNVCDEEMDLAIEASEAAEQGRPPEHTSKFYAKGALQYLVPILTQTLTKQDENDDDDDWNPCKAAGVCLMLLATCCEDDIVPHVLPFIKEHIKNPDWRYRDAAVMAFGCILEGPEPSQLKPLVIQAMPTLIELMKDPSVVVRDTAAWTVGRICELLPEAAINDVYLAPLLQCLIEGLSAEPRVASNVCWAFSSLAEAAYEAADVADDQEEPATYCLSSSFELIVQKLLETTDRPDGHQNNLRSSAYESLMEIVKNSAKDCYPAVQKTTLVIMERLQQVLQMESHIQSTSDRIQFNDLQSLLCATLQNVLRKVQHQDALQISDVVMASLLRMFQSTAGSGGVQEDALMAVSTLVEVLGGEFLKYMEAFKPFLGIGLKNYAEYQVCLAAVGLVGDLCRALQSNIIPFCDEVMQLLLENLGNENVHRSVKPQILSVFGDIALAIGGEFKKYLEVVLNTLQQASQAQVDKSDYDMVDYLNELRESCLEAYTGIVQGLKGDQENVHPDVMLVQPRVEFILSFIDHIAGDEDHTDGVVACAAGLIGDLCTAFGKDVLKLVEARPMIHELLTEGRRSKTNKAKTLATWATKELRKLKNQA
#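 FRET biosensor (snurportin 1 IBB flanked by EYFP and cerulean), 50 nM, with compound 5 min, then 0.125 microM importin beta in PBS, 1 mM DTT, 0.02% Tween-20, 0.1% BSA. CFP/YFP ratio read after 45 min at room temperature; pre-read flags interference.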
# miR-21 reporter: raises the signal of a miR-21 reporter; Potency, µM (titrated, usually from 38.3 µM), for the others: top-dose reporter change, positive = more light; 340,000 tested, under 10 active; HeLa miR-21 FLuc reporter, luciferase, 48 h; active = well fitted rising curve with a large enough effect; inconclusive = small, poorly fitted or top-dose-only effect; inactive = no such curve, though single readings can be large or run the other way;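 note: % of control where 0% means no effect; miR-21 action dims this reporter so a rising signal means less miR-21 action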
#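 Luminescence from a firefly luciferase reporter carrying a miR-21 binding site downstream, stably expressed under a CMV promoter in HeLa cells that make miR-21 endogenously, reports miRNA modulation after 48 h compound exposure up to approximately 40uM final.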
# Starred values were filed as active, the others as inactive; ? = inconclusive; nt = not tested or not shown; & = joins results of further samples. A portion of the library. The share of hits here may be higher or lower than overall.
# Screens in order: miR-21 reporter	Rango complex inh	GLA inh pH 4.5	Rango release inh
[1] O=C(NCCNC(=O)c1ccc(Cl)cc1Cl)c1cnccn1
→ -1.0%	-2.3%	nt	2.7%
[2] CCOc1ccc(NC(=O)CN(C)C(=O)c2cc(-c3ccncc3)nc3ccccc23)cc1OCC
→ nt	-0.2%	nt	-10.7%
[3] COc1ccc(-c2csc3nc(C(C)(C)C)oc(=O)c23)cc1OC
→ 4.9%	0.5%	-5.4	-9.7%
[4] Nc1nc(SCC(=O)Nc2ccccc2)[nH]c(=O)c1-c1ccccc1
→ -6.7%	5.1%	-11.0	0.2%
[5] COc1cccc(-c2nc(-c3ccccn3)no2)c1
→ 27.8%	2.5%	7.3	-3.2%
[6] COC(=O)Nc1ccc(S(=O)(=O)N2CCC(Cc3ccccc3)CC2)cc1
→ 4.3%	-2.3%	-1.0	-18.6%
[7] CC(=O)Nc1cccc(C(=O)OCC(=O)NNC(=O)c2cccs2)c1
→ nt	2.9%	nt	3.4%
[8] COc1ccc2nc(SCC(=O)N3CCN(c4ccc(F)cc4)CC3)c(C#N)cc2c1
→ -35.3%	-1.9%	-3.5	-9.6%
[9] COc1ccc(S(=O)(=O)Nc2cccc(/C=C/C(=O)O)c2)cc1
→ -2.7%	-5.3%	-7.6	-1.4%
[10] Cc1cccc(C)c1NC(=O)CSC(=O)c1sc2ccccc2c1Cl
→ -9.4%	-0.6%	-0.5	5.8%
[11] CC(C)C(NC(=O)c1ccccc1)C(=O)NCCc1ccccc1 (configuration not stated)
→ 3.1%	-4.6%	3.7	21.4%
[12] COC(=O)c1sc(S(=O)(=O)N2CCC(C)CC2)c(C(=O)OC)c1C
→ -14.3%	2.7%	-0.3	4.5%
[13] COc1ccc(C(C(=O)NC2CCCCC2)N2CCC3(CC2)OCCO3)cc1 (configuration not stated)
→ -7.1%	0.2%	3.4	4.5%
[14] O=C(Nc1ccc(-n2cccn2)cc1)C1CCCCN1Cc1cccc2c1OCO2 (configuration not stated)
→ 19.3%	-0.4%	nt	10.5%
[15] O=c1[nH]c2ccccc2nc1/C=C/c1ccc(O)cc1
→ -47.8%	?	-15.1	?

# Quoted at random: four records from the list
# Screens in order: miR-21 reporter	Rango complex inh	GLA inh pH 4.5	Rango release inh
[1] O=C(NCCNC(=O)c1ccc(Cl)cc1Cl)c1cnccn1
→ -1.0%	-2.3%	nt	2.7%
[3] COc1ccc(-c2csc3nc(C(C)(C)C)oc(=O)c23)cc1OC
→ 4.9%	0.5%	-5.4	-9.7%
[4] Nc1nc(SCC(=O)Nc2ccccc2)[nH]c(=O)c1-c1ccccc1
→ -6.7%	5.1%	-11.0	0.2%
[12] COC(=O)c1sc(S(=O)(=O)N2CCC(C)CC2)c(C(=O)OC)c1C
→ -14.3%	2.7%	-0.3	4.5%

# Carrying on.
# Screens in order: miR-21 reporter	Rango complex inh	GLA inh pH 4.5	Rango release inh
[16] CCCCN1C(Nc2ccccc2)=NC[C@@H]1CC(C)C
→ nt	-0.9%	nt	-13.6%
[17] Cc1ccc(NC(=O)Cc2ccccc2F)cc1S(=O)(=O)N1CCCCCC1
→ nt	0.7%	nt	-18.3%
[18] CCOC(=O)C1CCCCN1C(=O)CCc1nnc(-c2ccc3c(c2)OCO3)o1 (configuration not stated)
→ nt	-3.3%	nt	-2.2%
[19] CC(NC(=O)c1ccc(S(=O)(=O)C(F)F)cc1)c1ccccc1 (configuration not stated)
→ 1.3%	-0.3%	8.4	13.1%
[20] CCN(CC)S(=O)(=O)c1cc(C(=O)Nc2cccnc2)ccc1Cl
→ 1.7%	0.5%	3.9	9.0%
[21] CC12CCC(=O)N1C(C(=O)NNC(=O)c1ccccc1Cl)CS2 (configuration not stated)
→ nt	5.2%	nt	-3.4%
[22] O=[N+]([O-])c1ccc(C(O)C[n+]2ccccc2)cc1 (configuration not stated)
→ -5.5%	7.0%	nt	22.1%
[23] COc1cccc(C2N=C(c3ccccc3C)NO2)c1OC (configuration not stated)
→ -46.5%	0.1%	nt	12.6%
[24] COc1ccc(N2C(=O)CC(Sc3nc(C)c4c(n3)CCCC4)C2=O)cc1 (configuration not stated)
→ 7.4%	0.9%	3.6	5.5%
[25] CN(Cc1ccc(C(C)(C)C)cc1)C(=O)Cc1ccc(S(=O)(=O)N2CCOCC2)s1
→ nt	0.9%	nt	14.5%
[26] COc1ccc(CCNC2CC(=O)N(CCc3ccc(OC)c(OC)c3)C2=O)cc1OC (configuration not stated)
→ 3.6%	?	-7.3	-2.4%
[27] COc1cc(OC)c2ccc(=O)oc2c1C(CCN1CCCC1)c1ccc(N(C)C)cc1 (configuration not stated)
→ 1.2%	0.1%	4.5	-5.3%
[28] COc1ccc(CCNC(=O)CSc2nnc(Cc3csc(N)n3)n2C)cc1OC
→ -1.7%	-1.2%	3.0	-2.9%
[29] CCOC(=O)C1(Cc2cccc(Cl)c2)CCCN(C(=O)c2ccco2)C1 (configuration not stated)
→ 17.5%	0.5%	nt	12.6%
[30] O=C(O)CCn1cc(-c2ccc(Cl)cc2)nc1-c1ccc(Cl)nc1
→ nt	3.3%	nt	-2.6%

# Limited to Rango complex inh, Rango release inh and GLA inh pH 4.5, for 4 of the compounds above:
item	smiles	Rango complex inh	Rango release inh	GLA inh pH 4.5
24	COc1ccc(N2C(=O)CC(Sc3nc(C)c4c(n3)CCCC4)C2=O)cc1 (configuration not stated)	0.9%	5.5%	3.6
25	CN(Cc1ccc(C(C)(C)C)cc1)C(=O)Cc1ccc(S(=O)(=O)N2CCOCC2)s1	0.9%	14.5%	nt
26	COc1ccc(CCNC2CC(=O)N(CCc3ccc(OC)c(OC)c3)C2=O)cc1OC (configuration not stated)	?	-2.4%	-7.3
27	COc1cc(OC)c2ccc(=O)oc2c1C(CCN1CCCC1)c1ccc(N(C)C)cc1 (configuration not stated)	0.1%	-5.3%	4.5

# Remaining list, next part:
# Screens in order: miR-21 reporter	Rango complex inh	GLA inh pH 4.5	Rango release inh
[31] O=C(O)c1cccc(N2C(=O)c3cccnc3C2=O)c1
→ -2.9%	0.2%	-20.7	0.3%
[32] O=c1c(NCCc2ccc(Cl)cc2)c(-c2ccccc2)c1=O
→ 2.6%	1.1%	nt	4.4%
[33] O=S(=O)(c1ccc(S(=O)(=O)N(Cc2cccs2)CC2CCCO2)cc1)N1CCCCC1 (configuration not stated)
→ 0.5%	-0.2%	-18.8	4.5%
[34] O=c1ccc(Cc2ccccn2)n[nH]1
→ 1.7%	-2.8%	-2.7	0.5%
[35] COc1ccc2c(c1)c1ccc3c(c1n2C)C(=O)C=CC3=O
→ 7.2%	?	-11.9	?
[36] O=C(NCCCn1ccnc1)c1cc2cc([N+](=O)[O-])ccc2oc1=O
→ -7.3%	2.2%	-12.6	-6.6%
[37] COC(=O)Nc1ccc(S(=O)(=O)N2CCCC(C(=O)N3CCC(C)CC3)C2)cc1 (configuration not stated)
→ 2.3%	0.2%	-23.5	-12.8%
[38] CC(=O)Nc1ccc(C(=O)CN2C(=O)NC3(CCCc4ccccc43)C2=O)c(F)c1 (configuration not stated)
→ nt	?	nt	19.6%
[39] CCC(C)(C)n1nnnc1CN1CCC(NC(=O)c2ccccc2C)CC1
→ -3.4%	-3.5%	-2.8	-3.3%
[40] Nc1ccc(-c2c3ccccc3nc3ccccc23)cc1
→ 3.4%	0.1%	nt	1.4%
[41] Cc1cc(C)c(N=C2SCC(=O)N2Cc2ccco2)c(C)c1
→ 0.2%	-1.5%	-6.3	-2.3%
[42] COC(=O)C1=C(C)NC(C)=C(C(=O)OC)C1c1ccccn1
→ -1.4%	-1.2%	7.6	0.4%
[43] O=C(O)Cn1nc2ccccc2n1
→ -10.3%	-4.1%	3.0	-9.2%
[44] CCOC(=O)CCCSc1nc(-c2ccc3c(c2)OCO3)cc(C(F)(F)F)c1C#N
→ -4.0%	-2.9%	7.4	-12.7%
[45] CCCCn1c(N)c(N(CCC(C)C)C(=O)c2cc(Cl)nc3ccccc23)c(=O)[nH]c1=O
→ nt	0.6%	nt	3.2%
[46] Cn1c(N)c(C(=O)COC(=O)c2cc(C(F)(F)F)nc3ccccc23)c(=O)n(C)c1=O
→ -4.4%	nt	3.7&-7.1	nt
[47] COC(=O)C(CC(=O)O)NCc1ccco1 (configuration not stated)
→ -4.5%	0.1%	7.2	12.9%
[48] Cc1cccc(NC(=O)c2sc3ncn(CC(=O)N4CCN(c5ccccn5)CC4)c(=O)c3c2C)c1
→ 14.4%	-2.7%	nt	-18.2%
[49] Cc1ccc2nc(Cl)c(/C=C/C(=O)c3ccco3)cc2c1
→ -83.4%	1.2%	-24.0	-20.0%
